Assay outcomes deposited in PubChem by National Center for Advancing Translational Sciences (NCATS).
2A StopGo: High Throughput Screening for Foot and Mouth Disease Virus Antivirals; human cells with a luciferase reporter of 2A StopGo recoding; control for the full effect not named in the record; Potency, µM (series often up to 57.9 µM), for inactives: at the highest dose signal change, negative = less light; 410,000 compounds, 1.2% hits; AID 1159524, 2015; active = well fitted falling curve with a large enough effect; inconclusive = small, poorly fitted or top-dose-only effect; inactive = no such curve, though single readings can be large or run the other way; tested in HEK293T cells; also: % is scaled to controls: 0 for no effect and ±100 for the full control effect; nearly all actives have a fitted effect of over 45% in size; luciferase light after 4 h
Marburg entry inh: qHTS for inhibitors of binding or entry into cells for Marburg Virus | Marburg virus pseudotyped entry inhibition, cell reporter; control for the full effect not named in the record; about a third of the inactives were read at about 46 µM | Potency, µM (doses to about 37.8 µM), for inactives: top-dose activity change, negative = inhibition, usual class: inhibitors | 300,000 compounds, 1.8% hits; active = well fitted inhibition curve with a large enough effect; inconclusive = small, poorly fitted or top-dose-only effect, or effect the other way; inactive = flat fitted curve, though single readings scatter; tested in HEK293 cells; about a fifth of its hits are not listed in these tables; also: % is scaled to controls: 0 for no effect and ±100 for the full control effect; luciferase read-out
Cruzain inh noDet: qHTS Assay for Promiscuous and Specific Inhibitors of Cruzain (without detergent); purified cruzain, Z-FR-AMC fluorescence, no detergent; Potency, µM, inactives show max response, negative = inhibition, usual class: inhibitors; Cruzipain (Trypanosoma cruzi), P25779; AID 1476, 2009; 200,000 compounds, 2.3% hits;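 also: plate controls were enzyme without inhibitor for no effect and buffer without enzyme for full effect; nearly all actives have a fitted effect of over 40% in size; top concentration of the series not given in the record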
Target sequence (P25779 123-467 limits assumed): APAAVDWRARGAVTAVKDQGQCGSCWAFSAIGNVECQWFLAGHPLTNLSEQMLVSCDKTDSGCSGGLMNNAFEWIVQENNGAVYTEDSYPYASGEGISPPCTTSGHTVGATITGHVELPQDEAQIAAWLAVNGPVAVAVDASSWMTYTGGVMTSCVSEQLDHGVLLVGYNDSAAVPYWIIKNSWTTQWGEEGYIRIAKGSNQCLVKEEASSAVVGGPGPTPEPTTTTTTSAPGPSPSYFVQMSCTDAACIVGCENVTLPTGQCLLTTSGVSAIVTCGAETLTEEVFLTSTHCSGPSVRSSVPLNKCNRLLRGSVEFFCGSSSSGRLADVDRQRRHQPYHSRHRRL
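Detergent-free condition (0.00005% Triton X-100) in acetate buffer pH 5.5 with DTT. 1.5 nM enzyme and compound were pre-mixed 15 min, then 2 uM Z-FR-AMC substrate added; reaction progress from fluorescence change between first and third reads (60 s).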
Cruzain Triton: qHTS Assay for Promiscuous and Specific Inhibitors of Cruzain (with detergent); Cruzipain (Trypanosoma cruzi), P25779; AID 1478, 2009; purified cruzain, Z-FR-AMC fluorescence, 0.01% Triton; Potency, µM, for the others: max response, negative = inhibition, usual class: inhibitors; 200,000 compounds, 0.43% hits;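 also: plate controls were neutral wells for no effect and buffer without enzyme for full effect; nearly all actives have a fitted effect of over 40% in size; top concentration of the series not given in the record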
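In this qHTS format, compounds are incubated with 1.5 nM cruzain for 15 min at room temperature before 2 uM Z-FR-AMC is added. Release of AMC is followed at 360/450 nm, and progress is taken as the 60 s fluorescence difference.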
Lassa entry inh: qHTS for Inhibitors of binding or entry into cells for Lassa Virus; Lassa virus pseudotype entry inhibition, cell reporter; control for the full effect not named in the record; Potency, µM (doses to about 37.9 µM), for the others: at the top dose activity change, negative = inhibition, usual class: inhibitors; 300,000 compounds, 1.2% hits; AID 540256, 2011; active means well fitted inhibition curve with a large enough effect; inconclusive means small, poorly fitted or top-dose-only effect, or effect the other way; inactive means flat fitted curve, though single readings scatter; tested in HEK293 cells; also: % is scaled to controls: 0 for no effect and ±100 for the full control effect; nearly all actives have a fitted effect of over 50% in size; luciferase read-out
NS1 inh: qHTS Assay for Inhibitors of Influenza NS1 Protein Function; S. cerevisiae slowed by influenza A NS1, growth recovery by OD600; Potency, µM (doses to about 46.1 µM), without a hit: at the top dose activity, positive = more growth; 270,000 compounds, 0.4% hits; active means well fitted rising curve with a large enough effect; inconclusive means small, poorly fitted or top-dose-only effect; inactive means no such curve, though single readings can be large or run the other way; also: nearly all actives have a fitted effect of over 50% in size
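S. cerevisiae expressing influenza A NS1, grown in glucose, washed, then diluted 1:100 into pH 6.0 -URA galactose medium with 23 nl compound. Growth recovery read as OD600; NS1-free strain serves as control.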
RE007 growth inh: qHTS Assay for Inhibitors of the HIV-1 protein Vpr; S. pombe RE007 Vpr strain, BacTiter-Glo ATP luminescence, 24 h; control for the full effect not named in the record; Potency, µM (highest dose often 92.2 µM), inactives show at the top dose activity change, negative = less growth; 360,000 compounds, 0.21% hits; AID 651644, 2012; active = well fitted falling curve with a large enough effect; inconclusive = small, poorly fitted or top-dose-only effect; inactive = no such curve, though single readings can be large or run the other way;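 also: % is scaled to controls: 0 for no effect and ±100 for the full control effect; nearly all actives have a fitted effect of over 50% in size; the assay follows cell death caused by Vpr and the record does not say whether a fall means rescue or toxicity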
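Fission yeast RE007 carrying one integrated HIV-1 vpr copy, seeded at OD 0.01 in PMG+AL medium with 23 nL pinned compound. Grown 24 h at 30 degrees; viability read by BacTiter-Glo luminescence after 5 min.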
SARS PLpro yeast: qHTS of Yeast-based Assay for SARS-CoV PLP. S. cerevisiae expressing SARS-CoV PLpro, growth rescue; control for the full effect not named in the record. Potency, µM (series often up to 32.9 µM), inactives show top-dose activity, positive = growth rescue. 330,000 compounds, 0.19% hits. AID 485353, 2010; active means well fitted rising curve with a large enough effect; inconclusive means small, poorly fitted or top-dose-only effect; inactive means no such curve, though single readings can be large or run the other way; also: 0% is about no effect; nearly all actives have a fitted effect of over 55% in size; growth read by luminescence after 48 h
The depositor's hits bear a star; ? = inconclusive; . = not tested or not shown; & = joins results of further samples; [ ] = dose if it differs, or a comment. Unless noted, calls follow the shape of the dose curve; as a rule, active = well fitted curve in the direction sought with a large enough effect; inconclusive = small, poorly fitted or top-dose-only effect, or another doubt; inactive = no such curve, though single readings can be large; an effect the other way counts as inactive or inconclusive. Potency is read from the fitted curve at half-maximal effect.

SMILES | 2A StopGo | Marburg entry inh | Cruzain inh noDet | Cruzain Triton | Lassa entry inh | NS1 inh | RE007 growth inh | SARS PLpro yeast
CN1CCc2cccc(Cl)c2CC1 | -15% | -2%&-2%&-24%&-2% | -7% | 3.4% | 3% | 3% | 0%[18.4 µM] | .
Cc1cc(C)nc(SCC(CSc2nc(C)cc(C)n2)C(=O)O)n1 | -4% | -4%[46.1 µM] | . | . | 5% | 0% | -12% | 0%
CCC(=O)C1CCCN(C(=O)c2ccc(OC3CCN(C(=O)CCOC)CC3)cc2)C1 (stereo not given) | 36%[activator] | 24% | . | . | 2% | 13% | -11% | 4%
COC(=O)CSc1nc2cc(Cl)ccc2c(=O)n1C1CCCC1 | -21% | -19% | 1% | -2.3% | -33% | ? | 15% | -3%
Cn1nc(-c2ccc(N3CCOCC3)c(NS(=O)(=O)c3ccccc3)c2)c2ccccc2c1=O | 13% | ? | ? | 2.1% | ? | -45% | -7% | -8%
CC1CC(C)CN(C(=O)c2cc(-c3ccncc3)nc3ccccc23)C1 (stereo not given) | 1% | -37% | . | . | -29% | . | -9% | -12%
C/C(=N\NC(=O)c1nn(C)cc1Br)c1cccc(NC(=O)C(C)(C)C)c1 | 14% | -1%[46.1 µM] | 9% | -1.2% | -2% | 4% | -11% | 5%
CCOC(=O)C(CC)/C(C)=N/NC(=O)c1ccc([N+](=O)[O-])cc1 (stereo not given) | . | 2% | 3% | -1.8% | 14% | 0% | 8% | 2%
O=C(NCCc1ccccc1)c1ccc2[nH]c(=O)c(=O)[nH]c2c1 | 0% | . | . | . | . | -3% | -5% | -1%
CC(=O)Nc1ccc(S(=O)(=O)N(C)c2ccc(O)cc2)cc1 | -23% | 1% | -14% | 4.3% | ? | ? | 12% | 13%
COC(=O)c1nc2n(n1)C(c1ccc([N+](=O)[O-])cc1)C(C(=O)Nc1ccc(Cl)cc1)=C(C)N2 (stereo not given) | 4% | 1% | ? | 3.3% | 2% | 4% | 1% | 7%
Cc1ccc(-c2nn3c(C)nnc3s2)cc1NC(=O)c1ccc(Br)o1 | -24% | . | -9% | -6.7% | . | -2% | 2% | -4%
Cc1nc2nc(COc3ccccc3)nn2c(C)c1Cl | 16% | 22% | 2% | 5.9% | 3% | -60% | 15% | 13%
Cn1cnc([N+](=O)[O-])c1Nc1cccc(O)c1 | 12% | 21% | -16% | 0.0% | 0% | 1% | -16% | 4%
COc1cc(C)ccc1OCCCON1C(=O)CCC1=O | 47%[activator] | -3% | 3% | 7.6% | 6% | -8% | 23% | 7%
COC(=O)c1cc2oc(C)cc2n1CC(=O)N1CCCc2ccccc21 | -3% | . | -1% | -7.3% | . | -9% | -1% | 3%
Cc1[nH]c2ccc(C(=O)NC3CCC(C)CC3)cc2c1C (stereo not given) | 60%[activator] | . | . | . | . | 9% | -18% | 8%
Cc1cc(N2CC(C)OC(C)C2)nc2ccccc12 (stereo not given) | 0% | 18%[46.1 µM] | . | . | 2% | -5% | -24% | -5%
O=C(CSc1ccc2ccccc2n1)NC1CC1 | -14% | 9% | . | . | -6% | . | 6% | 4%
CN(C)c1ccc(NC(=O)Nc2cccc3ccccc23)cc1 | 29% | . | . | . | . | 13% | 3% | -2%
COc1ccc(S(=O)(=O)c2nnn(-c3cccc(Cl)c3)c2N)cc1 | 0%&-15% | -16% | 2% | -3.5% | -2% | . | 8% | -1%
CC(C)(C)CC(=O)Nc1ccc(-c2cn3cccnc3n2)cc1 | 56%[activator] | 0% | . | . | ? | 1% | 6% | 1%
CCOc1ccc(N(CC(=O)Nc2cc(C)cc(C)c2)S(C)(=O)=O)cc1 | 2% | . | . | . | . | 2% | 7% | 0%
CCOC(=O)c1ccc(NC(=S)Nc2ccccc2)cc1 | 46%[activator] | 24% | 11% | -0.8% | ? | -17% | 2% | -16%
O=C(NCc1nc2ccccc2[nH]1)C1=C[C@@H](c2csc3ccccc23)C[C@@H](OCCCCO)O1 | -17% | . | . | . | . | -37% | 19% | 1%
Oc1cccc(C(=S)N2CCC(Cc3ccccc3)CC2)c1 | -14% | . | . | . | . | -16% | 6% | 1%
Cc1c(NC(=O)Nc2ccc(Cl)c(Cl)c2)sc(=S)n1C | 3% | ? | . | . | ? | . | -1% | .
CCc1cccc(C)c1NS(=O)(=O)c1c(C(=O)N2CCC(C)CC2)c(C)n(C)c1C | 22% | . | ? | -3.0% | -15%[46.1 µM] | . | . | .
COCCn1c(-c2ccc(OC)cc2)cnc1SCC(=O)Nc1cc(C)on1 | ? | ? | -5% | -0.9% | -11% | -14% | -1% | 1%
Cc1nc(Nc2ccc(S(=O)(=O)N3CCCCC3C)cc2)c2nnn(Cc3ccccc3)c2n1 (stereo not given) | -28% | ? | 11% | -20% | ? | -4% | 9% | 19%
CCOc1ccc(NS(=O)(=O)c2ccc(NC(=O)c3ccccc3C(=O)O)cc2)cc1 | -7% | 1% | . | . | 0% | . | -12% | .
COC(=O)C1=C(C)N(Cc2ccccc2)C(=NCCc2ccccn2)N[C@H]1c1cccc(C(F)(F)F)c1 | 0% | . | . | . | . | -5% | 2% | -2%&1%
Cn1c(CNC(=O)c2ccco2)nnc1SCC(=O)Nc1c(F)cc(F)cc1Br | -9% | 13%[46.1 µM] | . | . | 5% | 1% | 3% | 0%
N/C(=N\OC(=O)CC1CCCCC1)c1ccccn1 | . | 2% | 3% | -1.4% | ? | -5% | -13% | -1%
O=C(O)c1ccc(-n2cncn2)c([N+](=O)[O-])c1 | -2% | 19% | . | . | -2% | -2% | -1% | 0%
O=C(NN1C(=O)/C(=C/c2ccc(O)c([N+](=O)[O-])c2)SC1=S)c1ccccc1Cl | ? | -6%[46.1 µM] | . | . | -26% | . | ? | -19%
CCOc1ccc(-n2c(SCc3cc(=O)oc4cc(C)ccc34)nnc2-c2cccnc2)cc1 | 10% | -1% | 9% | -3.8% | -10% | 3% | 8% | -5%
C=CCN1C(=O)C2C(C(=O)NC)C3(C)C=CC2(O3)C1C(=O)NCc1ccc(OC)cc1 (stereo not given) | -10% | ? | -3% | 3.3% | 1% | 0% | 6% | -4%
Cc1ccc(S(=O)(=O)N2CCc3cc(C(=O)Nc4ccc(Cl)cc4C)ccc32)cc1 | -1% | 4%[46.1 µM] | 8% | -0.4% | 10%[46.1 µM] | . | . | .
O=C(NNC(=O)C1COc2ccccc2O1)c1ccccc1 (stereo not given) | 1% | -1% | -4% | 0.6% | 19% | -15% | 6% | -2%
OCc1nc2ccccc2n1CCCOc1ccccc1 | . | -27% | -1% | -2.3% | 4% | -3% | 1% | 0%
COc1ccc(-c2cn3nc(SCC(=O)NC4CCCCC4)ccc3n2)cc1 | 14% | ? | . | . | ? | 9% | -1% | -1%
COc1cccc(NC(=O)CC2S/C(=N\S(=O)(=O)c3ccccc3)N(c3ccccc3)C2=O)c1 (stereo not given) | 6% | 17% | ? | -2.5% | 3% | 10µM* | -3% | 7%
O=C(c1ccc(CN2CCc3ccccc3C2)cc1)N1CCN(c2ccccc2)CC1 | ? | ? | 15% | -3.4% | -1% | 4% | 3% | -11%
COc1ccc(CNC(=O)C(c2ccco2)N(Cc2cccs2)C(=O)Cc2cccs2)cc1 (stereo not given) | -6% | 3% | 0% | -7.7% | ? | -13% | 4% | 6%
OCCC1CN(Cc2nc3ccc(F)cc3[nH]2)CCN1C1CCCC1 (stereo not given) | 9% | . | . | . | . | 0% | -4% | 0%
COc1ccc(-c2noc(COc3ccccc3OC)n2)cc1OC | 7% | . | ? | -7.3% | . | -33% | -4% | -1%
CC1=C(C(=O)Nc2ccccc2C)C(c2cccs2)n2nc(SCc3cc(C)ccc3C)nc2N1 (stereo not given) | 0% | . | -8% | 0.9% | -3%[46.1 µM] | . | . | .

Reformatted: entries from further up
> CCOc1ccc(NS(=O)(=O)c2ccc(NC(=O)c3ccccc3C(=O)O)cc2)cc1
  2A StopGo = -7%	Marburg entry inh = 1%	Cruzain inh noDet = .	Cruzain Triton = .	Lassa entry inh = 0%	NS1 inh = .	RE007 growth inh = -12%	SARS PLpro yeast = .
> COC(=O)C1=C(C)N(Cc2ccccc2)C(=NCCc2ccccn2)N[C@H]1c1cccc(C(F)(F)F)c1
  2A StopGo = 0%	Marburg entry inh = .	Cruzain inh noDet = .	Cruzain Triton = .	Lassa entry inh = .	NS1 inh = -5%	RE007 growth inh = 2%	SARS PLpro yeast = -2%&1%
> Cn1c(CNC(=O)c2ccco2)nnc1SCC(=O)Nc1c(F)cc(F)cc1Br
  2A StopGo = -9%	Marburg entry inh = 13%[46.1 µM]	Cruzain inh noDet = .	Cruzain Triton = .	Lassa entry inh = 5%	NS1 inh = 1%	RE007 growth inh = 3%	SARS PLpro yeast = 0%
> N/C(=N\OC(=O)CC1CCCCC1)c1ccccn1
  2A StopGo = .	Marburg entry inh = 2%	Cruzain inh noDet = 3%	Cruzain Triton = -1.4%	Lassa entry inh = ?	NS1 inh = -5%	RE007 growth inh = -13%	SARS PLpro yeast = -1%
